KCNQ2 enhance – potentiators of rat KCNQ2 potassium channel; O88943; B-score at 10 µM; 310,000 tested, 0.54% active; AID 2239; CHO-K1 KCNQ2, FluxOR thallium flux fluorescence; active compounds read high;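 active = fluorescence ratio B-score at least 3 SD of library B-scores, with initial fluorescence B-score within 3 SD, cut at about 5.3 in these data; same plate scores as AID 2156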;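 note: B-score of peak minus minimum over baseline fluorescence ratio after K+ and Tl+ stimulus; positive B-score means potentiation of KCNQ2 with more thallium influx and brighter signal; only the inactives scoring about 0 or higher are listed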
Target sequence (O88943 whole entry, looked up): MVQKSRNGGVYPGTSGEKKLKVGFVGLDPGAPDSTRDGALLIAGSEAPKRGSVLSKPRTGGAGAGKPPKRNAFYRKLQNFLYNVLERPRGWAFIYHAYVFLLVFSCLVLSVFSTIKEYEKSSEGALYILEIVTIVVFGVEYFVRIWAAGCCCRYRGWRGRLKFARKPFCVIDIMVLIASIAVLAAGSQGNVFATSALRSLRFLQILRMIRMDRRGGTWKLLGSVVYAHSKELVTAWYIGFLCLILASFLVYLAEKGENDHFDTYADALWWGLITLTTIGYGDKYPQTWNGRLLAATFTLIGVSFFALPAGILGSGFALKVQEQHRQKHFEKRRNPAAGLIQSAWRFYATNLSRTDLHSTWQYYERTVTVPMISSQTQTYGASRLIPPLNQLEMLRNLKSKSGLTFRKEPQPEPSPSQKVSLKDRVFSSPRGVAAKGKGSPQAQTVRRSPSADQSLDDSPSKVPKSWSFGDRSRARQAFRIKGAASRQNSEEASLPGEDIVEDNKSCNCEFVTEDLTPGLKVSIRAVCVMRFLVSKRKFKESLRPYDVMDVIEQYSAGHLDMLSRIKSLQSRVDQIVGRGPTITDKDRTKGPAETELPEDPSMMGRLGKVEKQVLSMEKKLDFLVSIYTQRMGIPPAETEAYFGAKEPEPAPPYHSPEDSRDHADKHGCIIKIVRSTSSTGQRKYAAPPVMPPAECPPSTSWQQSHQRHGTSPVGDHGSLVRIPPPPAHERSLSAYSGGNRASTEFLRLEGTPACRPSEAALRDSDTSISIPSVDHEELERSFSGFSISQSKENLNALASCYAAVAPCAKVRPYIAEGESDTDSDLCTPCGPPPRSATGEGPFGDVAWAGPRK
KCNQ2 enhance baseline – second read-out of KCNQ2 enhance, no call of its own (marks repeat the call); B-score; compound at 10 µM; measured here: initial fluorescence intensity artifact check;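 brightness before thallium and not channel activity; 0 = typical well and far values either way flag optical interference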
* hit, by the source's call. Some of the compounds tested. The share of hits here may be higher or lower than overall.

SMILES | KCNQ2 enhance | KCNQ2 enhance baseline
O=C(CSc1ccc(C(F)(F)F)cc1[N+](=O)[O-])NCCOc1ccccc1 | 0.2 | -1.08
COc1cccc(C2CC(=O)NC(SC)=C2C#N)c1 (stereo not given) | 2.12 | -0.03
O=C(Nc1ccc(O)cc1)c1ccc2c(c1)C(=O)N(Cc1ccccc1)C2=O | 0.09 | -1.06
CC(NS(=O)(=O)c1ccc(Cl)cc1)C(=O)NCc1ccco1 (stereo not given) | 1.07 | -0.02
CCN1CCN(C(=O)c2ccc(CSc3ccc(C)cc3)cc2)CC1 | 0.1 | 0.08
CCOC(=O)c1[nH]c(C)c(C(=O)NCc2ccco2)c1C | 0.24 | 0.9
O=C(CCN1CCOCC1)NC12CC3CC(CC(C3)C1)C2 | 0.77 | -0.33
O=C(Cn1cnc2c(nnn2Cc2ccc(Cl)cc2)c1=O)NC1CCCC1 | 0.21 | -0.29
CCCC(=O)Nc1ccc2c(c1)c1ccccc1n2CC | 1.68 | 4.55
CCCCNC(=O)C(C#N)c1nc2ccccc2nc1N1CCCC1 (stereo not given) | 0.74 | 0.64
Cc1ccc(CC(=O)Nc2nnc(-c3ccc(F)cc3)o2)c(C)c1 | 0.87 | -1.97
CC(=O)NCc1ccc2[nH]c(C)cc2c1 | 0.65 | 1.7
Cc1ccc(S(=O)(=O)Oc2ccccc2/C=C2\SC(=O)NC2=O)cc1 | 0.04 | 0.02
CC(O)CNc1ccc(-c2nn(C)c(=O)c3ccccc23)cc1[N+](=O)[O-] (stereo not given) | 0.1 | -1.48
COCCN(C(=O)c1csnn1)C(C(=O)NC1CCCC1)c1ccc(C)cc1 (stereo not given) | 1.44 | 0.86
O=C(Nc1ccc(Oc2cccnc2)cc1)C1CCN(Cc2cc(Cl)ccc2O)CC1 | 1 | 0.13
O=C(Nc1sc2c(c1C(=O)O)CCCCC2)c1ccccc1 | 1.28 | 1.15
CC(c1ccco1)N(C(=O)c1ccc(C(F)(F)F)cc1)c1ccccn1 (stereo not given) | 0.82 | 0
CC1CCN(S(=O)(=O)c2ccc3c(c2)CC(C)N3C(=O)C2CCC2)CC1 (stereo not given) | 0.11 | -2.2
O=C(Nc1cccc(S(=O)(=O)N2CCOCC2)c1)C1=NN(c2ccccc2)C(=O)CC1 | 1.67 | -0.91
COc1ccc(NC(=O)c2cc([N+](=O)[O-])ccc2O)cc1 | 2.68 | -0.67
O=C(NCCCN1CCCC1)[C@H](CSCc1ccccc1)N1Cc2ccccc2C1=O | 0.61 | -0.85
Cc1ccc(S(=O)(=O)N2CCOCC2)cc1C(=O)Nc1nc2ccccc2[nH]1 | 1.3 | -2.57
CSc1nc(-c2ccco2)nn1C(=O)c1ccccc1 | 1.13 | 1.08

One compound at a time (already shown).
CC(c1ccco1)N(C(=O)c1ccc(C(F)(F)F)cc1)c1ccccn1 (stereo not given) across the screens: KCNQ2 enhance = 0.82; KCNQ2 enhance baseline = 0
O=C(Nc1ccc(Oc2cccnc2)cc1)C1CCN(Cc2cc(Cl)ccc2O)CC1 across the screens: KCNQ2 enhance = 1; KCNQ2 enhance baseline = 0.13
COc1ccc(NC(=O)c2cc([N+](=O)[O-])ccc2O)cc1 across the screens: KCNQ2 enhance = 2.68; KCNQ2 enhance baseline = -0.67

Continued.
SMILES | KCNQ2 enhance | KCNQ2 enhance baseline
COc1ccc(C(C(=O)NCC2CCCO2)N(Cc2cccs2)C(=O)c2snc(C(N)=O)c2N)cc1 (stereo not given) | 0.33 | 2.63
CCOc1ccc(N(CC(=O)NC2CCCCC2C)S(=O)(=O)c2c(C)noc2C)cc1 (stereo not given) | 0.32 | -0.15
Cc1[nH]c2ccccc2c1C(=O)CSc1nc2cc(S(=O)(=O)N3CCCCC3)ccc2o1 | 1.12 | -0.02
O=C(NCc1cccc(Cl)c1)c1cc(=O)[nH]c2ccccc12 | 2.6 | 0.36
CCn1c(SCC(=O)Nc2cc(C)ccc2C)nnc1-c1cnccn1 | 0.63 | 0.01
CCN(CC)S(=O)(=O)c1cc(Br)c(C)cc1OC | 1.01 | 0.48
O=S(=O)(c1cccc2nsnc12)N1CCCCC1 | 1.22 | -0.38
FC(F)(F)c1ccncc1-c1nnc(C2CCCCC2)o1 | 0.49 | 0.59
CCOC(=O)N1CCN(c2c(N3CCOCC3)c(=O)c2=O)CC1 | 0.05 | 0.58
O=C(Nc1cccc(F)c1)C1C2C=CC3(CN(CCCN4CCOCC4)C(=O)C13)O2 (stereo not given) | 0.42 | 0.73
Cc1oc(-c2ccc(Cl)cc2)nc1CS(=O)CC(=O)NC1CCCCCC1 (stereo not given) | 0.6 | -0.59
Cc1cc(C)c(NC(=O)COC(=O)Cc2cccs2)c(C)c1 | 0.04 | -0.22

Brought forward from above: 4 entries; new compounds follow.
SMILES | KCNQ2 enhance | KCNQ2 enhance baseline
CCOC(=O)N1CCN(c2c(N3CCOCC3)c(=O)c2=O)CC1 | 0.05 | 0.58
O=C(Nc1cccc(F)c1)C1C2C=CC3(CN(CCCN4CCOCC4)C(=O)C13)O2 (stereo not given) | 0.42 | 0.73
Cc1oc(-c2ccc(Cl)cc2)nc1CS(=O)CC(=O)NC1CCCCCC1 (stereo not given) | 0.6 | -0.59
Cc1cc(C)c(NC(=O)COC(=O)Cc2cccs2)c(C)c1 | 0.04 | -0.22
O=C(C[n+]1cccc2ccccc21)c1ccccc1 | 0.52 | 0.34
CCN(CC)CCNC(C(=O)Nc1cc(C(F)(F)F)ccc1Cl)c1ccccc1 (stereo not given) | 2.01 | -0.44
Cc1nn(Cc2cccc(C(=O)N3N=C(C(F)F)CC3(O)C(F)F)c2)c(C)c1[N+](=O)[O-] (stereo not given) | 3.14 | 1.49
O=C(CN1CCN(c2ccccc2O)CC1)Nc1cccnc1Cl | 0.65 | -0.21
O=C(O)CN(Cc1ccco1)S(=O)(=O)c1ccccc1 | 0.8 | 1.7
Cc1cc(C)cc(N(C(=O)c2sc(C)nc2C)C(C(=O)NC(C)(C)C)c2ccncc2)c1 (stereo not given) | 0.25 | 1.09
COc1ccc2cc(/C=C/C(=O)N3CCN(CC(=O)N4CCCCCC4)CC3)ccc2c1 | 0.17 | -0.54
O=C(Nc1ccc2nn(-c3ccc(F)cc3)nc2c1)c1cccnc1 | 0.38 | 0.72
COC(=O)c1ccc(OCC(=O)Nc2ccsc2C(=O)OC)cc1 | 0.31 | 0.39
O=c1cnnc(SCCc2ccccc2)[nH]1 | 0.76 | 0.05
O=C1C(Cl)=C(N2CCOCC2)C(=O)N1c1cccc(C(F)(F)F)c1 | 1.7 | 0.99
Cc1cc(OCC(=O)N2CCCC2)cc(C)c1Cl | 0.56 | -1.06
CCOc1ccc2nc(SC3CC(=O)N(c4cccc(OC)c4)C3=O)sc2c1 (stereo not given) | 0.62 | 2.12
CCN(CC)CCN1C(=O)C2C3c4ccccc4C(c4ccccc43)C2C1=O (stereo not given) | 0.02 | -1.72
CCOc1ccc(-c2nnc(-c3ccco3)o2)cc1 | 2.18 | -0.6
Cc1ccc(OCc2nnc(SCC(=O)NCc3ccco3)n2C)cc1 | 0.24 | 2.64
CC(=O)N1CCOc2ccc(S(=O)(=O)Nc3cccc(C)n3)cc21 | 1.63 | 1.27
Cc1ccc(/C=N/c2sc3c(c2C#N)CCCCC3)o1 | 1.39 | 0.55
O=c1cc(/N=C/c2coc3c(ccc4ccccc43)c2=O)[nH]c(=S)[nH]1 | 1.27 | 2.18
CCc1ccc(OCc2nnc(SCCN3CCOCC3)n2CC)cc1 | 1.37 | -0.9
Cc1ccccc1NC(=S)N1CCC(NC(=O)c2ccco2)CC1 | 0.02 | -1.58
CC(=O)Nc1ccc(SCC(=O)c2cc(C)n(C)c2C)cc1 | 0.61 | -1.93
COc1ccc(C2CC(=O)N(CCCN(C)CCc3ccc(OC)c(OC)c3)C2)cc1 (stereo not given) | 0.3 | 0.01
CC(C)c1ccccc1NC(=O)C1CN(S(=O)(=O)c2ccccc2)CCN1S(=O)(=O)c1ccccc1 (stereo not given) | 0.35 | 2.35

3 compounds from above, sorted by heavy-atom count, rising:
SMILES | KCNQ2 enhance | KCNQ2 enhance baseline
CC(=O)Nc1ccc(SCC(=O)c2cc(C)n(C)c2C)cc1 | 0.61 | -1.93
Cc1ccccc1NC(=S)N1CCC(NC(=O)c2ccco2)CC1 | 0.02 | -1.58
COc1ccc(C2CC(=O)N(CCCN(C)CCc3ccc(OC)c(OC)c3)C2)cc1 (stereo not given) | 0.3 | 0.01

Further entries
SMILES | KCNQ2 enhance | KCNQ2 enhance baseline
COCCN1CCN(C(=O)C2CCC(=O)N(Cc3ccccc3F)C2)CC1 (stereo not given) | 0.64 | -0.01
O=C(N/N=C/C=C/c1ccc2c(c1)OCO2)C(O)c1ccccc1 (stereo not given) | 0.63 | -0.54
O=C1COc2ccc(C(=O)COc3ccc(Cl)cc3Br)cc2N1 | 0.28 | -0.01
CC(NC(=O)CCNS(=O)(=O)c1ccc2c(c1)c(=O)n(C)c(=O)n2C)c1ccccc1 (stereo not given) | 1.63 | -1.16
Cc1ccc(-c2csc3nc[nH]c(=O)c23)cc1C | 1.33 | -0.91
COc1ccccc1NS(=O)(=O)c1ccc(C)c(C(=O)NCC2CCCO2)c1 (stereo not given) | 0.15 | 0.3
O=C(C[n+]1ccccc1)N/N=C/c1ccc(Cl)c(Cl)c1 | 2.01 | 2.35
C=CCN1C(=O)C(O)(CC(=O)c2ccc(N)cc2)c2ccccc21 (stereo not given) | 0.21 | 0.99
O=C(O)c1ccc(C2NCC(c3ccccc3Cl)c3c2[nH]c2ccccc32)cc1 (stereo not given) | 0.02 | -0.04
Cc1cc(NC(=O)CCN2C(=O)/C(=C/c3ccccc3Cl)SC2=S)no1 | 0.4 | -1.14
CCOC(=O)COn1c(=O)c(-c2ccc(Cl)cc2)[n+]([O-])c2ccccc21 | 1.65 | 1.78
COc1ccc(N2CCN(C(=O)C(=O)c3c(C)[nH]c4ccccc34)CC2)cc1 | 1.66 | -0.64
CC(=O)Nc1ccc(C(=O)NNC(=O)C2C3CCCCC32)cc1 (stereo not given) | 1.24 | 0.66
O=C(Nc1nc2ccccc2s1)c1ccccc1 | 0.53 | -1.3
O=C(Cc1cccc2ccccc12)NNC(=O)c1cccs1 | 2.47 | -1.23
COC(=O)/C=C(\C)N=Nc1c(O)[nH]c2ccccc12 | 0.27 | -0.04
CC(C)CC1C(C#N)=C(N)OC2=C1C(=O)CC(c1ccccc1)C2 (stereo not given) | 0.68 | -2.09
CCN(C(=O)COC(=O)CSc1ccc(C)c(C)c1)C1CCS(=O)(=O)C1 (stereo not given) | 1.34 | 2.82
CCN(CC(=O)Nc1sc2c(c1C#N)CCCC2)CC(=O)NC1CCS(=O)(=O)C1 (stereo not given) | 0.7 | -0.28
Cc1ccc(C(=O)NNC(=O)c2csc(N3CCOCC3)n2)s1 | 0.51 | 0.05
Cc1cc(C)c(NS(=O)(=O)c2ccc3c(c2)NC(=O)CC(=O)N3)c(C)c1 | 0.95 | -0.92
O=C1c2cccc3c(Nc4ccccc4Cl)c([N+](=O)[O-])cc(c23)C(=O)N1CCO | 1.25 | -0.99
COc1ccc(C2NC(c3ccc(OC)cc3OC)C(C)C(=O)C2C)c(OC)c1 (stereo not given) | 0.64 | 0.63
O=C(CSc1nnc(-c2cccnc2)o1)c1cc2ccccc2oc1=O | 0.24 | 0.2
COCCN(C(=S)Nc1ccccc1OC)C1CCN(C(C)=O)CC1 | 0.45 | -0.71
O=C(CC1C(=O)NCCN1C(=O)Nc1ccccc1)Nc1ccc2c(c1)OCCO2 (stereo not given) | 0.1 | -0.3
COc1ccc(CCNC(=O)Cn2nc([N+](=O)[O-])c(Br)c2C)cc1OC | 0.07 | -0.78
CCN(CC)CCSc1nnc(Nc2ccccc2)n1-c1ccccc1 | 2.11 | -1.59
O=C(Nc1ncccn1)c1ccc(C(F)(F)F)cc1 | 1.39 | -4
O=C(O)CCOc1ccc2c(c1)OCCO2 | 0.02 | 0.23
COc1ccc(NC(=O)CSc2nc(-c3ccc(C)cc3)cc(C(F)(F)F)c2C#N)cc1 | 0.31 | -0.78
CCSc1ccccc1C(=O)N1CCC2(CC1)CC(=O)c1ccccc1O2 | 0.81 | -0.61
O=C(Nc1ccccc1F)C1C2C=CC3(O2)C1C(=O)N(c1cccnc1)C3C(=O)NC1CCCCC1 (stereo not given) | 0.2 | -0.6
COc1ccc(/C=N/Nc2ccccn2)cc1O | 1.22 | 0.66
CCc1ccc(NC(=O)CC2C(=O)NCCN2C(=O)c2ccccc2OC)cc1 (stereo not given) | 0.01 | -0.7
CS(=O)(=O)c1ccc2nc(NC(=O)c3ccc(Cl)nc3)sc2c1 | 0.8 | 0.99
Cc1ccc(CNC(=O)CN(Cc2ccccc2)S(C)(=O)=O)cc1 | 0.17 | -0.13
Cn1c(SCC(=O)Nc2ccccc2Cl)nnc1C1CC1 | 0.14 | 0.01
CCCCCCC(=O)Oc1ccc(N2C(=O)CCC2=O)cc1 | 0.99 | 1.62
OCCN1CCN(CC(O)COc2ccc3ccccc3c2)CC1 (stereo not given) | 0.4 | 0.6
CNC(=O)Cn1c(=O)n(C)c2ccccc21 | 0.27 | 1.99
CC1CCN(C(=O)c2[nH]cnc2C(=O)NCC(=O)OC(C)(C)C)CC1 | 0.21 | -0.6
O=C(NCc1ccccc1)c1nnc(CS(=O)(=O)c2ccccc2)o1 | 0.21 | -1.41
COc1ccc(OCCOC(=O)c2cccc(-n3cnnn3)c2)cc1 | 0.61 | -0.61
CC(C)(C)C(=O)/C=C(\N)c1ccncc1 | 0.02 | 0.68
O=C(c1ccccc1F)N1CCN(c2ccc([N+](=O)[O-])c3ncccc23)CC1 | 1.2 | -0.13
CCc1nnc(NS(=O)(=O)c2ccc(NC(=O)c3cc(Cl)ccc3Cl)cc2)s1 | 0.45 | 0.23
CC(=O)N1CCN(S(=O)(=O)c2ccc(S(=O)(=O)NC3CC3)cc2)CC1 | 0.8 | -3.9
